Screening data deposited in PubChem BioAssay by several laboratories.
RecA splice inh = blocks M. tuberculosis RecA intein splicing | P9WHJ3 | inhibition, %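 (about 9 µM by stock and volumes)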 | 290,000 compounds, 0.75% hits | cell-free RecA intein splicing, fluorescence; in the data active means inhibition above about 30%;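 further: 0% = vehicle wells and 100% = reference inhibitor control wells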
Target sequence (P9WHJ3 whole entry, looked up, canonical isoform): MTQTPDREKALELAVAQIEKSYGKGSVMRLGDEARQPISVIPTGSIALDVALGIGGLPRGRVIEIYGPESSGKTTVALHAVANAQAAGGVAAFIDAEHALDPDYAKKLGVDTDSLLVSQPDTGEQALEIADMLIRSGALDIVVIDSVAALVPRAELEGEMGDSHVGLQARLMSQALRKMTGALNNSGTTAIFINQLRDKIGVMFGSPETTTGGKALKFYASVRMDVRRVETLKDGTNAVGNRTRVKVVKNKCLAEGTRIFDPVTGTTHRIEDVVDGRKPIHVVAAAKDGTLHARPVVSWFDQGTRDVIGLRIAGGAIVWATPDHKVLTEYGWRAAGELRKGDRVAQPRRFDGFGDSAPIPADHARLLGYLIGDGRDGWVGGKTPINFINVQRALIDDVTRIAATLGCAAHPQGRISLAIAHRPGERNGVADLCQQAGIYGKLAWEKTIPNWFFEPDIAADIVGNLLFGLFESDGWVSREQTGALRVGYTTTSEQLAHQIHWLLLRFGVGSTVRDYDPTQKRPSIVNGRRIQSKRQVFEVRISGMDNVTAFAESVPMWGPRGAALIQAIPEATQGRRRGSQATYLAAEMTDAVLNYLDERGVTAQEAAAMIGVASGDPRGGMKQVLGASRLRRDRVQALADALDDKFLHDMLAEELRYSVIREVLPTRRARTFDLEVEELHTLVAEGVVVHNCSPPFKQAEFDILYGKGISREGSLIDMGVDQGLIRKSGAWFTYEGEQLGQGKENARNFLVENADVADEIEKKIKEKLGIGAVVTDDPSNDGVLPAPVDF
YopH PTP inh = inhibitors of Yersinia enterocolitica YopH tyrosine phosphatase; fluorescence Ex485/Em525; inhibition, %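 (about 10 µM by stock and volumes)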; 140,000 compounds, 0.16% hits; AID 898;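 active means inhibition of 50% or more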;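 further: controls were vehicle for no effect and minimum signal wells for full effect; inactives centre near -20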
Arbovirus anti = arbovirus infection inhibition | inhibition, % at 10 µM | 200,000 compounds, 0.37% hits | arbovirus infection cell-based antiviral screen;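 active means inhibition from about 30%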;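 further: bluetongue infection of BSR cells; cell survival read as ATP light after 72 h; 0% = infected wells without compound and 100% = uninfected wells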
Mtb growth = M. tuberculosis H37Rv growth inhibitors, H37Rv strain (AID 1626); M. tuberculosis H37Rv growth inhibition; higher % means a stronger effect; inhibition, % at 10 µM; hits with a dose series show IC50 in µM; 220,000 compounds, 0.95% hits;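 active means confirmed in a dose series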;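 further: bacteria incubated seven days before Alamar blue readout; 0% = bacteria only wells and 100% = bacteria with antibiotic wells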
Mtb betalactam = beta-lactam sensitization of Mtb H37Rv. inhibition, % at 25 µM. AID 434955. 330,000 compounds, 0.27% hits. M. tuberculosis H37Rv growth with meropenem, percent inhibition; hits of this screen are not shown here;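 active means about 74% or more and at least 40 points above the plate without the antibiotic, then above 30% in a dose series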;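 further: growth measured after seven days incubation then overnight dye step; 0% = bacteria only wells and 100% = bacteria with antibiotic; twin plates without the antibiotic show which effects depend on it; some results filed as inactive read as strong as hits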
Arbovirus anti repeat = recorded beside Arbovirus anti, whose call it bears; inhibition, %; measured here: 10K subset replicate screen; many hits read low in the repeat;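 first of two repeat runs on a subset; 0% = infected and 100% = uninfected wells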
* marks the source's active call; other numbers are inactive results; nt = no result given. Only part of the results is shown; the hit share may differ from the screen's.

SMILES | RecA splice inh | YopH PTP inh | Arbovirus anti | Mtb growth | Mtb betalactam | others
O=C(COc1ccc2c(c1)CCC2)NCc1ccccc1 | 3.3 | -35 | -13 | 16% | 14
CCCc1cc(=O)n2[nH]c(-c3ccccc3)cc2n1 | -0.8 | 10 | -6 | -5% | 2
COc1cc(CCCN2C(=O)C(=O)NC[C@@H]2Cc2ccc(O)cc2)cc(OC)c1OC | 1.6 | nt | nt | -17% | 8
CC(=O)Nc1cc(OC(=O)c2ccco2)cc(OC(=O)c2ccco2)c1 | 54* | 15 | 0 | -4% | -1 | Arbovirus anti repeat=-2
CC(=O)c1ccc(OC(C)C)c(Cc2c(O)[nH]c(=S)[nH]c2=O)c1 | -0.4 | nt | 2 | 3% | 3
CCOc1ccc(OCCNC2CCCC2)cc1 | -1.6 | 3 | -3 | -3% | 9
Cc1nonc1C1CCCN1C(=O)c1cc(COc2ccc(F)cc2Cl)on1 (stereo not given) | 2.8 | nt | -7 | 11% | 3
CC(=O)Nc1ccc(S(=O)(=O)N(C#N)c2nc(N(C)C)nc(N(C)C)n2)cc1 | -2.6 | nt | nt | nt | -1
CN(C)S(=O)(=O)c1cccc(-c2nn(-c3ccccc3)cc2/C=C(/C#N)C(=O)NCc2ccco2)c1 | 2.6 | -12 | -4 | -5% | 4
CN1CCN(CC/C=C2/c3ccccc3Sc3ccc(S(=O)(=O)N(C)C)cc32)CC1 | -2.3 | nt | -22 | 10% | -3
Cc1ccc(/C=C2/SC(=S)N(CCC(=O)N3CCOCC3)C2=O)cc1 | 9.0 | nt | nt | nt | -6
NC(=O)CC(NC(=O)Cc1ccc(Br)cc1)c1ccc(N2CCC(Br)CC2)c([N+](=O)[O-])c1 (stereo not given) | 0.4 | nt | nt | -3% | -1
Brc1ccc2ncnc(NCc3ccco3)c2c1 | 5.7 | -39 | 7 | 3% | 1 | Arbovirus anti repeat=7
Cc1ccc(S(=O)(=O)N2CCN(Cc3nc4ccccc4n3C)CC2)cc1 | 4.3 | -35 | 4 | -16% | 7
COC(=O)c1ccsc1NC(=O)c1cccc(OC)c1 | 0.8 | nt | 1 | 8% | 7
O=C(CSc1ccc(-c2ccccc2)nn1)c1cccs1 | 2.2 | nt | -3 | 7% | 1
CCOC(=O)N1CCN(c2ccc(O)cc2)CC1 | -3.8 | -23 | -10 | -4% | -4
COC(=O)c1ccc(NC(=O)COc2ccc(S(=O)(=O)NC(C)C)cc2)cc1 | -1.1 | -21 | 0 | -3% | -1
NS(=O)(=O)c1ccc(NC(=O)CN2CCN(Cc3ccccc3)CC2)cc1 | -2.8 | -7 | 6 | -2% | -2
O=C(Nc1ccc2nc(-c3cccnc3)[nH]c2c1)C1CCCCC1 | 0.6 | -10 | -27 | -11% | 36
CC1=CCC(C(=O)O)C(C(=O)Nc2ccc(-c3nc4ccc(C)cc4s3)cc2)C1 (stereo not given) | 5.4 | nt | nt | -6% | 5
CC1CCN(C(=O)c2cc3nc(C4CC4)cc(C(F)(F)F)n3n2)CC1 | 0.0 | -6 | -7 | -8% | -6
CCNc1ccccc(-c2ccc3ccccc3n2)c1=O | -10 | -9 | -14 | -4% | -2
COc1ccc(NC(=O)COc2ccc(/C=C/c3cccc[n+]3C)cc2OC)cc1 | 6.4 | nt | nt | nt | -10
O=C(NC(=S)N1CCCc2ccccc21)c1ccccc1 | -3.3 | -12 | 4 | 72% | 2
The listing continues:
SMILES | RecA splice inh | YopH PTP inh | Arbovirus anti | Mtb growth | Mtb betalactam | others
CN1C(=O)C(CC(=O)Nc2ccccc2F)N(NC(=O)c2ccc(Br)cc2)C1=S (stereo not given) | 0.5 | nt | nt | nt | 1
COc1ccc(C[C@H]2CN3C(=NC[C@@H]3C(C)C)N2CCNC(=O)c2ccc(C)c(Br)c2)cc1 | 1.8 | nt | -22 | 31% | 79
Cc1cccc(-n2nc3c(c2NC(=O)CCC2CCCCC2)CS(=O)C3)c1C (stereo not given) | 2.0 | -26 | 5 | 0% | 2 | Arbovirus anti repeat=5
O=c1[nH]c2cccnc2n1-c1ccc([N+](=O)[O-])cc1 | -3.9 | nt | nt | 3% | -9
COC(=O)C1=C(C)NC(=O)NC1/C=C/c1ccccc1 (stereo not given) | -4.0 | -16 | 1 | 1% | 9
COc1ccccc1C(=O)NCCC(=O)NCCCSc1ccccc1 | -1.0 | nt | nt | nt | -1
Clc1ccc(CN2C3=NCCCN3c3ccccc32)c(Cl)c1 | 0.2 | nt | nt | nt | 0
CC(C)Oc1ccc(CCC(=O)N/N=C/c2ccncc2)cc1 | -4.8 | nt | nt | 5% | -4
CCN1CCN(c2ccc(S(=O)(=O)N3CCOCC3)cc2NC(=O)c2ccc(C)c(C)c2)CC1 | -1.9 | nt | nt | nt | -1
COC(=O)c1c(NC(=O)C(=O)NCCCN2CCOCC2)sc2c1CCCC2 | 0.4 | nt | nt | nt | -3
COC(=O)c1ccc(OC(=O)CS(=O)c2ccccc2[N+](=O)[O-])cc1 (stereo not given) | nt | nt | 1 | 2% | -1
N#C/C(=C1/CCCN1)c1ccccn1 | -0.4 | -31 | -2 | 5% | nt
CC(C)C(=O)N(c1ccc2oc(=O)sc2c1)S(=O)(=O)c1ccccc1 | -1.3 | -4 | -10 | -1% | -2
Cc1cccc(N2CCN(C(=O)c3ccc4c(c3)NC(=O)C(CSCc3cccc(F)c3)N4)CC2)c1C (stereo not given) | 17 | nt | nt | nt | 87
CCC(C)c1ccc(NC(=O)NCCN2CCCCC2)cc1 (stereo not given) | 0.8 | nt | nt | nt | 4
COc1cc([N+](=O)[O-])ccc1NC(=O)CN1CCN(C(=O)c2ccco2)CC1 | 2.2 | nt | 0 | 7% | -2
O=C(NCCc1c[nH]c2ccccc12)/C(=C/c1ccco1)NC(=O)c1ccco1 | -7.0 | nt | 3 | 5% | -3
Cc1cc(C)cc(C(=O)NCCC(=O)NCc2cc(=O)n(C)c(=O)n2C)c1 | 0.0 | nt | nt | nt | 3
O=C1C=C(O)CC(c2cccs2)C1 (stereo not given) | -4.6 | 8 | 8 | -8% | -6
CCn1cc(S(=O)(=O)NC2CCCCC2)cn1 | 1.6 | nt | nt | nt | -5
CCc1n[nH]c2c1C(=O)CC(C)(C)C2 | -1.3 | -34 | 0 | -8% | 6
O=C(NNC(=O)C1CC(=O)N(Cc2ccccc2)C1)c1ccc(F)cc1 (stereo not given) | -3.7 | nt | nt | nt | -1
Cc1ccc(S(=O)(=O)N(CC(=O)NN=C2CCN(C)CC2)c2ccc(F)cc2)cc1 | 0.9 | nt | -5 | 1% | -12
CCc1ccc(/C=C2\SC(N3CCOCC3)=NC2=O)cc1 | 5.6 | nt | -7 | -3% | -8
Cc1ccc(S(=O)(=O)CC(=O)Nc2nnc(C(C)C)s2)cc1 | -0.8 | nt | nt | nt | -10

Entries from the list above with two or more sulfur atoms (five):
SMILES | RecA splice inh | YopH PTP inh | Arbovirus anti | Mtb growth | Mtb betalactam | others
CN1CCN(CC/C=C2/c3ccccc3Sc3ccc(S(=O)(=O)N(C)C)cc32)CC1 | -2.3 | nt | -22 | 10% | -3
Cc1ccc(/C=C2/SC(=S)N(CCC(=O)N3CCOCC3)C2=O)cc1 | 9.0 | nt | nt | nt | -6
O=C(CSc1ccc(-c2ccccc2)nn1)c1cccs1 | 2.2 | nt | -3 | 7% | 1
CC(C)C(=O)N(c1ccc2oc(=O)sc2c1)S(=O)(=O)c1ccccc1 | -1.3 | -4 | -10 | -1% | -2
Cc1ccc(S(=O)(=O)CC(=O)Nc2nnc(C(C)C)s2)cc1 | -0.8 | nt | nt | nt | -10

(listing goes on)
SMILES | RecA splice inh | YopH PTP inh | Arbovirus anti | Mtb growth | Mtb betalactam | others
CCOC(=O)C1(Cc2ccccc2)CCN(Cc2nccn2CC)CC1 | -0.4 | nt | 4 | 8% | 0
Cc1ccc(C(=O)NCC(=O)N2CCCC(C(F)(F)F)C2)s1 (stereo not given) | -1.4 | nt | nt | nt | -11
COc1ccc2c(c1)c1nc3ccccc3nc1n2CCCN1C(=O)c2ccccc2C1=O | -4.5 | -24 | -4 | 0% | 1
COc1ccc(C2NN=C(c3ccc(C)cc3)S2)cc1OC (stereo not given) | -0.6 | nt | -6 | -1% | 4
Cc1nc2ccccc2n1CC(=O)NC1CCCC1 | -2.6 | nt | 6 | -7% | -4
O=C(CCc1c[nH]c2ccccc12)NC(Cc1ccccc1)C(=O)O (stereo not given) | -1.3 | nt | nt | nt | 3
Cc1ccc(-c2nc(C#N)c(NCCCn3ccnc3)o2)cc1 | -0.3 | nt | 0 | 6% | 0
COc1cc2c(cc1OC)CN(c1ccc([N+](=O)[O-])cc1C#N)CC2 | -1.7 | -40 | 6 | 10% | 17
CC(/C=N/Nc1nnc(C)c(=O)[nH]1)=C\c1ccccc1 | -0.9 | -5 | 7 | -5% | 6
COc1ccc(/C=N/NC(=O)CSc2nnc(C)n2-c2ccccc2)c(OC)c1OC | 1.3 | 3 | 3 | 7% | 2
OCC[C@@H]1C[C@@H](O)[C@H](O)[C@@]2(Cc3ccccc3CO2)O1 | -2.7 | nt | nt | nt | -3
c1ccc(CCCN2CCN(c3ccccn3)CC2)cc1 | -0.1 | nt | nt | nt | -6
N#C/C(=C/c1ccc(-c2ccccc2[N+](=O)[O-])o1)C(N)=O | 0.1 | nt | -1 | 5% | -2
COC(=O)c1cc(C)[nH]c2c(C)cc3nc4ccccc4c3c12 | -37 | nt | nt | 10% | 84
CCc1oc2ccccc2c1C(=O)CCN1CCCCC1 | 2.9 | -1 | 2 | 1% | 94
CCCCn1c(O)c(C(C)=Nc2ccc(C(=O)O)cc2)c(=O)[nH]c1=O | -1.9 | -29 | 9 | -16% | 10
COc1ccc(N2CCN(C(=O)CN(C)S(=O)(=O)c3cc(C)ccc3OC)CC2)cc1 | -3.0 | nt | 23 | -2% | 1
CCN(Cc1ccccc1)C(=O)Cc1ccc(OC)c(S(=O)(=O)N2CCOCC2)c1 | -6.4 | nt | nt | nt | -15
O=C(COC(=O)/C=C/c1cccs1)Nc1cccc(S(=O)(=O)N2CCCC2)c1 | 2.8 | nt | -3 | 3% | -7
N#C/C(=C(/O)c1ccc(Cl)c([N+](=O)[O-])c1)c1nc2ccccc2[nH]1 | -0.2 | nt | nt | 52% | 74
O=C(COC(=O)C1CCN(/C=C/C(=O)C(F)(F)F)CC1)Nc1ccccc1 | -4.1 | -9 | 7 | 6% | 7
O=c1[nH]c2cc([N+](=O)[O-])c([N+](=O)[O-])cc2[nH]c1=O | -13 | nt | 5 | -5% | -2
c1ccc(Nc2nc(N3CCNCC3)nc(N3CCOCC3)n2)cc1 | -2.4 | -25 | -6 | 5% | 0
COc1ccc(-c2cc(=O)[nH]c(N3CCN(Cc4ccccc4)CC3)n2)cc1 | -1.0 | nt | nt | nt | 7
O=C(NCc1ccccc1)c1cnsn1 | 3.5 | 12 | 0 | 13% | 15
(cont.)
SMILES | RecA splice inh | YopH PTP inh | Arbovirus anti | Mtb growth | Mtb betalactam | others
Cc1ccc(C2CC(c3cccs3)=NN2C(=O)CSc2nc(=O)n3cc(C)ccc3n2)cc1 (stereo not given) | 6.5 | nt | nt | nt | 9
CC(C)(Oc1ccc(Br)cc1Cl)C(=O)Nc1ccon1 | -0.6 | nt | nt | nt | 13
Oc1ccc2ccccc2c1C=Nc1ccc(N2CCOCC2)cc1 | -4.0 | -8 | -16 | -2% | 56
Cc1cc(C)nc(NS(=O)(=O)c2ccc(NC(=O)c3ccc4c(c3)OCO4)cc2)n1 | -0.1 | -38 | -2 | 4% | 4 | Arbovirus anti repeat=3
CC(=O)c1ccc(NC(=O)c2cccc(N3C(=O)c4ccccc4C3=O)c2)cc1 | -1.8 | nt | nt | nt | 0
C=CCn1c(SCC(=O)c2cccs2)nc2sc(CC)cc2c1=O | -0.6 | -35 | -9 | 10% | 12 | Arbovirus anti repeat=-4
COc1ccc(Cl)cc1NC(=O)CCc1ccccc1 | -4.4 | 9 | 1 | -6% | 5
O=C(Nc1ccc2snnc2c1)N1CCCCC1 | -2.1 | nt | -3 | -3% | -2
CCNC(=S)Nc1cc(C(=O)N2CCCC2)ccc1N1CCCC1 | -2.1 | nt | -1 | -1% | -1
CCN1C(=O)C2(C(C(=O)c3cc4ccccc4o3)=C(O)C(=O)N2CCCN2CCOCC2)c2ccccc21 (stereo not given) | -7.7 | nt | nt | 3% | -7
Cc1ccc(NC(=O)C2CCC(CNC(=O)[C@@H]3Cc4ccccc4CN3)CC2)cc1 (stereo not given in full) | 2.6 | nt | nt | nt | -2
Cn1nc(CC(=O)NCc2ccc(F)cc2)c2ccccc2c1=O | 0.9 | 0 | 9 | -1% | -2
O=C(CCCc1ccccc1)NCCN1CCOCC1 | 6.0 | 3 | 22 | -5% | 2 | Arbovirus anti repeat=1
CCOC(=O)Cn1cc(C=O)c2ccccc21 | -0.4 | -3 | 2 | 0% | 7

Two compounds picked at random from those above:
SMILES | RecA splice inh | YopH PTP inh | Arbovirus anti | Mtb growth | Mtb betalactam | others
CC(C)(Oc1ccc(Br)cc1Cl)C(=O)Nc1ccon1 | -0.6 | nt | nt | nt | 13
Cn1nc(CC(=O)NCc2ccc(F)cc2)c2ccccc2c1=O | 0.9 | 0 | 9 | -1% | -2
